NPYLR7 agonist – activates Aedes aegypti NPYLR7 receptor. HEK293T NPYLR7/Galpha15, GCaMP6s calcium fluorescence. activation, % at 10 µM. 0.15% of 270,000 active. AID 1259423; in the data active = activation above about 40%;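 also: 0% = vehicle and 100% = reference agonist at the receptor; some compounds past the cut are filed as inactive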
NPYLR7 agonist max-min – second read-out of NPYLR7 agonist, no call of its own (marks repeat the call); activation, %; measured here: Max-Min RFU normalised activation; some inactives read as strong as hits;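 span of the calcium signal over five minutes; 0% = vehicle and 100% = native peptide agonist; compound fluorescence can raise it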
* marks the source's active call; other numbers are inactive results; & = joins results of further samples.

The opening 2 compounds (preview)
SMILES	NPYLR7 agonist	NPYLR7 agonist max-min
COc1ccc(-c2cc3c(SCC(=O)NCc4ccccc4OC)nccn3n2)cc1	1	-1
O=C(CN1CCN(c2ccccc2F)CC1)Nc1ccccc1OCC(F)(F)F	10	7

All compounds of this part (from the top)
SMILES	NPYLR7 agonist	NPYLR7 agonist max-min
COc1ccc(-c2cc3c(SCC(=O)NCc4ccccc4OC)nccn3n2)cc1	1	-1
O=C(CN1CCN(c2ccccc2F)CC1)Nc1ccccc1OCC(F)(F)F	10	7
O=C(/C=C/c1cccs1)NC1CCN(Cc2ccccn2)CC1	9	7
COC(=O)c1ccc(CN2CCN(Cc3ccsc3)C(CCO)C2)cc1 (configuration not stated)	2&10	-3&0
CC(=O)Nc1ccc2c(c1)OCCOCCOCCOCCO2	-4	-7
CCc1ccc(CNc2ccc(CNc3ncn[nH]3)cc2)cc1	-13	-21
COc1ccc(/C=C2\Oc3cc(OCC(=O)OC(C)(C)C)ccc3C2=O)c(OC)c1OC	-3	-6
COCCCN(CC(=O)N(Cc1ccc(F)cc1)Cc1sccc1C)S(=O)(=O)c1c(C)cc(C)cc1C	-1	11
Cc1ccccc1-n1c(C)nnc1SCc1nc(C(=O)N2CCC(Cc3ccccc3)CC2)cs1	0	12
NS(=O)(=O)c1cc(Cl)c(Cl)c(S(N)(=O)=O)c1	4	3
CCOC(=O)CSc1nnc(-c2cccc(C)c2)n1-c1ccccc1	-5	-12
O=[N+]([O-])c1ccc(Cl)c(CN2CCCn3cccc3C2c2cccc(C(F)(F)F)c2)c1 (configuration not stated)	21	20
COCCCn1c(=NC(C)=O)c(C#N)cc2c(=O)n3cccc(C)c3nc21	4	5
Cc1ccc(-c2ccc(=O)n(CCCC(=O)Nc3ccccc3C(N)=O)n2)cc1	-6	-14
CCOC(=O)C1(Cc2ccc(Cl)cc2)CCN(C(=O)c2sc(C)nc2C)CC1	8	7
Cc1cc(C)n(CC(C)n2cc(-c3nccn3C)nn2)n1 (configuration not stated)	16	11
COc1ccc(C(=O)CSc2nccn(-c3cccc(C)c3)c2=O)cc1	-2	-6
CC(C)CNc1nn2cc(C(C)(C)C)nc2s1	-1	1
CCOC(=O)c1c(C)[nH]c(-c2csc(N3CCCC3)n2)c1C	2	7
O=C(Nc1cccc(F)c1)Nc1nccn(-c2cccc(Cl)c2)c1=O	-3	-7
CC(Sc1nc2ccccc2[nH]1)C(N)=O (configuration not stated)	-4	-9
CNc1cncc(-c2ccc(OC)cc2OC)n1	2	1
Cn1cc(C(C[N+](=O)[O-])c2ccccc2)c2ccccc21 (configuration not stated)	9	3
CCOc1c(CC)cnc2c1c(=O)n(CC(=O)NC1CCCCC1)c(=O)n2C	0	-2
CCOc1ccccc1C(=O)NC1CC(=O)N(Cc2ccccc2Cl)C1 (configuration not stated)	5	2
COC(=O)CN(c1ccc(C)cc1)S(=O)(=O)c1c(-c2ccccc2)csc1C(=O)OC	0	-3
Cc1ccc(CN(C)C(=O)C2CCN(S(=O)(=O)c3ccc4c(c3)CCCC4)CC2)o1	0	25
CC1(C)CCC(NC(=O)c2ccc(Cn3cncn3)cc2)c2ccccc21 (configuration not stated)	6	4
Brc1ccc(NC2=NCCCCC2)cc1	1&2	-1&0
CCOc1ccc(C(=O)NCCNc2ccc(Nc3cc(C)ccn3)nn2)cc1	9	0
O=C1NCCN(Cc2cccs2)C1CC(=O)N1CCC(O)(c2ccccc2)CC1 (configuration not stated)	11	10
CC(C)(C)OC(=O)NC1CCN(C(=O)c2cccnc2Oc2cccc(C(F)(F)F)c2)C1 (configuration not stated)	-6	-10
CC1CCN(S(=O)(=O)c2ccc(-c3nc(C#N)c(NCc4cccnc4)o3)cc2)CC1	1	5
O=C(c1cc(NC(=O)C23CC4CC(CC(C4)C2)C3)ccc1N1CCC(Cc2ccccc2)CC1)N1CCCC1	3	7
Cc1nc2c(c(=O)c3ccccc3n2C)c(=O)n1CCc1ccccc1	4	1
CCOc1ccccc1CN(CC)Cc1cc(C)[nH]n1	-2	-7
CC(=O)Nc1ccc(NC(=O)c2cc3ccccc3oc2=O)cc1	1	-6
CCNC(=O)c1cn(CC(C)C)cc(C(=O)NCc2ccccc2C)c1=O	13	2
CC(C)(C)Nc1c(-c2ccc(C(C)(C)C)cc2)nc2ccc(Cl)cn12	-3	3
CC(C)NC(=O)[C@@H]1C[C@@H](N)CN1C(=O)c1cnn2ccccc12	0	0
Cc1ccc(CN2CCCn3cncc3C2)n1-c1cccnc1	-3	-3
O=C(NCCc1ccccc1)c1cccc(OC2CCN(C3CCSCC3)CC2)c1	15	10
O=C(Nc1ccc(F)cc1)N1CCN(C(C(=O)N2CCCC2)C2CCCC2)CC1 (configuration not stated)	-8	-2
Cn1c(SCc2cc(=O)oc3cc(O)c(Cl)cc23)nnc1C(F)(F)F	3	1
CC(=O)Nc1ccc(C(=O)N2CCOC(C(F)(F)F)C2)c(O)c1 (configuration not stated)	-3	-6
COCCN(CC(=O)Nc1nc(CC(=O)NC(C)c2ccccc2)cs1)C(=O)c1ccc(OC)cc1 (configuration not stated)	-6	-4
Cc1ccc(-c2nc(C)c(C)c(N3CCN(S(=O)(=O)c4cccc(C(F)(F)F)c4)CC3)n2)cc1	14	19
CCCn1ccnc1-c1nccn1Cc1cccs1	-5	-7
CCn1c2ccccc2c2cc(Nc3cccc(-c4ccc(CNC(=O)OC(C)(C)C)cc4)n3)ccc21	-6	-10
CN(C)C(=O)Oc1ccc[n+](C)c1	-5&-3&3&2	-8&-7&2&5
Cc1cc(C(=O)N2CCN(Cc3cc(=O)c(OCc4ccc(-c5ccccc5C#N)cc4)co3)CC2)n(C)n1	3	5
O=C(O)/C=C/C(=O)NC(c1ccccc1)c1ccccc1	0	0
NCc1nc(-c2ncccn2)no1	-3	3
CCCCOc1ccccc1C(=O)N1CCN2C(=O)CN(C)C(=O)C2C1 (configuration not stated)	7	5
CCc1noc(CN(C)C(C(=O)OC)c2cccc(C#N)c2)n1 (configuration not stated)	-1	0
COc1c(C)cc(-c2ccc(CN)s2)cc1C	15	11
Cc1cc(C)n(-c2cc(NCCNC(=O)C(C)Oc3ccccc3)ncn2)n1 (configuration not stated)	-5	-12
COc1ncccc1C(=O)N1CC(c2ccncc2)C1	0	21
CN(C(=O)c1ccc(=O)[nH]c1)C1CCCc2ccccc21 (configuration not stated)	16	5
O=C1CC(c2ccccc2)CC2=Nc3ccccc3NC(c3cccc(O)c3)C12 (configuration not stated)	-10	-13
(list continues)
SMILES	NPYLR7 agonist	NPYLR7 agonist max-min
COc1ccc2c(c1)CCc1cc(CCC(=O)NCCOc3ccccc3)n(CCc3cccc(F)c3)c1-2	22	6
CCC(NC(=O)NC(C)(C)C)C1c2cc(OC)c(OC)cc2CCN1Cc1ccccc1F (configuration not stated)	5	13
Cc1c(Cl)cccc1NC(=O)CSc1nnc(CCC(=O)O)c(=O)[nH]1	16	10
CN1CCC(Cc2noc(-c3ccc(Cn4cnnn4)cc3)n2)CC1	-5	-7
Cc1cc(C=C(C#N)C(=O)OCC(=O)Nc2ccccc2OC(F)F)c(C)n1CCC(C)C	9	5
CC(Cn1cncn1)NCc1nncn1C1CCCCC1 (configuration not stated)	27	17
c1cnc(-n2cnc3ccccc32)c(CNc2ncnc3c2CCC3)c1	-1	-2
Cc1cc(C(=O)N2CCN(c3nc4ccc(F)cc4s3)CC2)on1	11	17
c1ccc2c(c1)sc1nnc(SCc3cn4ccccc4n3)n12	2	8
CSCc1ccc(C(=O)N2CCN(S(=O)(=O)c3ccc4c(c3)CCCC4)CC2)cc1	0	3
Cc1ccsc1[C@@H]1CCN(Cc2ccc3c(c2)CCO3)C[C@H]1O	4	3
Cc1c(N=C2C=CC(=O)c3ccccc32)c(=O)n(-c2ccccc2)n1C	-1	-6
CNC(=S)N1CCN(c2ccccn2)CC1	5	4
O=c1ccc(Br)cn1Cc1nc2ccccc2c2ccccc12	2	8
CC(NC(=O)c1ccc2c(c1)OCCO2)c1nnc2n1CCNCC2 (configuration not stated)	2	0
Cc1ccccc1CC1(C(=O)O)CCCN(Cc2ccncc2)C1 (configuration not stated)	5	2
CCOC(=O)C(C)(C)n1cc(N)cn1	15	8
CC1CN(c2cc(Oc3cccc(F)c3)ncn2)CCN1C(=O)COc1ccccc1 (configuration not stated)	11	13
Cc1ccc(N(C(=O)C2CCCN(C(=O)C3CC3)C2)C2CCCCC2)nc1 (configuration not stated)	2	0
O=C(N[C@H]1CCCCNC1=O)c1ccc(N2CCC(NC[C@H]3CCc4ccccc4O3)CC2)cc1	14	3
CCOC(=O)CC1CCCCN1Cc1cc(=O)n2cc(Cl)ccc2n1 (configuration not stated)	2	1
Cc1ccc(-c2cnc(C(O)c3cc(C)cc(C)c3)[nH]2)cc1 (configuration not stated)	-2	-5
CC(OC(=O)c1ccc(=O)n(Cc2ccccc2Cl)c1)C(=O)NC(C)(C)C (configuration not stated)	-2	-1
N[C@@H](CSCCCO)C(=O)O	-3	-13
COc1cc2c(cc1OC)C(CN)N(Cc1cccc(F)c1)CC2 (configuration not stated)	-2	-2
Cc1cccc(-n2c(SCc3nc(C(=O)N4CCN(c5cccc(Cl)c5)CC4)cs3)nnc2-c2cccs2)c1	14	16
COc1cc(C(=O)OCCCN=C2NS(=O)(=O)c3ccccc32)cc(OC)c1OC	1	-1
O=C(c1cnn(-c2ccccc2)c1)N1CCN(S(=O)(=O)c2ccccc2C(F)(F)F)CC1	-3	-5
CC1Oc2ccccc2C2CC(c3ccc(-c4ccccc4)cc3)=NN12 (configuration not stated)	5	-5
COc1cc(CSc2nc(=O)n3cccc(C)c3n2)cc(OC)c1	0	-2
CCOc1cccc(-c2c(Nc3ccccc3)oc3c2c(=O)n(C)c(=O)n3C)c1	-6	-8
O=C(c1ccccc1-c1ccccc1)N1CC(c2ccncc2)C1	5	12
COc1ccccc1CN1CCC(C(=O)Nc2cccc(-c3cscn3)c2)CC1	0&-1	-5&-4
CN(CCCc1cnn(C)c1)C(=O)[C@@H]1CCCCN1	23	18
CC(=O)c1ccccc1-c1ccc2ncnc(NCCO)c2c1	1	1
OC[C@@H]1CCCN1c1ccn2nccc2n1	3	1
CN(Cc1ncc[nH]1)C(=O)[C@@H]1C[C@H]1c1ccccc1	-3	-5
COc1ncc(-c2nccn2CCc2nc(C)cc(C(F)(F)F)n2)cn1	-1	-4
CC(C)COCC1CC2(CC(C)(c3csc(N)n3)OC2=O)C(=O)O1 (configuration not stated)	8	3
CCOC(=O)C1CCN(S(=O)(=O)c2cccc(-c3cn4cccnc4n3)c2)CC1	-3	30
O=C(c1cncc(Br)c1)N1CCN(c2nccc(-c3cccc(C(F)(F)F)c3)n2)CC1	8	3
C=c1cc(C)n(CC(=O)Nc2ccc(C)cc2C)c(=O)c1=C1N=C(c2ccc(F)cc2)NO1	3	-1
COc1cccc2cc(-c3nc4ccccc4[nH]3)c(=Nc3ccc(-c4ccccc4)cc3)oc12	1	-1
CC(Sc1nc2ccccc2o1)C(=O)c1c[nH]c2ccccc12 (configuration not stated)	7	12
COc1cccc(CCNC(=O)c2cc(N3CCN(c4cccc(C(F)(F)F)c4)CC3)nc3ccccc23)c1	5	1
COC(=O)c1c2c(nc3c1c(-c1ccco1)nn3C1CCS(=O)(=O)C1)CCC2 (configuration not stated)	10	3
CCOC(=O)C(Cc1ccc(Cl)cc1)NC(=O)c1c(C)oc(C)c1-c1ccc(C)cc1 (configuration not stated)	-1	-4
C=CCn1nnc(NC(=O)c2cccc(C)c2)n1	-1	-2
O=C(NCc1cc(F)ccc1C(F)(F)F)c1c(OCc2cccnc2)nn2ccsc12	29	16
O=C(N=Nc1c(O)[nH]c2ccc(Br)cc12)c1ccccn1	-5	-9
O=C(O)c1ccccc1C(=O)N1CCC2(CC1)OCc1cc(-c3ccc(C(F)(F)F)cc3)ccc1O2	8	12
COCCNC(=O)CSc1nnc(-c2cc3c(s2)CCC(C(C)(C)C)C3)n1C (configuration not stated)	0	8
CN(CC(O)CO)C(=O)CCC(=O)NC1CCCCCCC1 (configuration not stated)	2	1
COc1ccccc1-c1ccc(C(=O)N2CC[C@H](CO)[C@@H](O)C2)cc1	-3	-3
CCc1nc(-c2ccc3c(c2)CCCC(=O)N3)cs1	-1	-2
COc1cccc(NC(=O)NC(Cc2ccccc2)C(=O)Nc2nnc(-c3ccccc3)s2)c1 (configuration not stated)	24	23
CCC1=NOC(Cn2cnc(-c3ccccc3)c2-c2ccco2)C1 (configuration not stated)	20	11
CCc1ccc(C(=O)Nc2c(F)cccc2N2CCCC2)o1	10	4
Cc1c(CN2CCN(c3ncccn3)CC2)noc1-c1ccc(F)cc1	13	6
O=C(CCl)Nc1ccc(F)cc1F	-6	-12

One compound at a time, as listed above. Values in the order: NPYLR7 agonist | NPYLR7 agonist max-min
`COc1ccccc1-c1ccc(C(=O)N2CC[C@H](CO)[C@@H](O)C2)cc1` is entered as -3 | -3
`C=c1cc(C)n(CC(=O)Nc2ccc(C)cc2C)c(=O)c1=C1N=C(c2ccc(F)cc2)NO1` is entered as 3 | -1
`C=CCn1nnc(NC(=O)c2cccc(C)c2)n1` is entered as -1 | -2
`COCCNC(=O)CSc1nnc(-c2cc3c(s2)CCC(C(C)(C)C)C3)n1C` (configuration not stated) is entered as 0 | 8

Exported bar-delimited: part of the list above.
molecule | NPYLR7 agonist | NPYLR7 agonist max-min
Cc1cc(C(=O)N2CCN(Cc3cc(=O)c(OCc4ccc(-c5ccccc5C#N)cc4)co3)CC2)n(C)n1 | 3 | 5
O=C(O)/C=C/C(=O)NC(c1ccccc1)c1ccccc1 | 0 | 0
NCc1nc(-c2ncccn2)no1 | -3 | 3

Going on with the list:
SMILES	NPYLR7 agonist	NPYLR7 agonist max-min
CC(NC(=O)N(C1CC1)C(C)c1cccnc1)c1ccccc1 (configuration not stated)	4	2
O=C(N[C@@H]1CCC[C@H]1OCc1ccccc1)c1cn[nH]n1	-11	-10
CC(=O)c1ccc(Oc2cc(C)nc(SCc3cccc([N+](=O)[O-])c3)n2)cc1	-9	-9
O=Cc1cc(-c2ccccc2)[nH]c1-c1ccccc1	3	3

High-throughput results deposited in PubChem BioAssay by Fisher Drug Discovery Resource Center.

These rows are one share of the data. The share of hits here may be higher or lower than overall.
